# Compound activity: PubChem, several laboratories
# GALR2 ag: GALR2 (human) receptor agonism; O43603; GALR2-expressing cells, agonist activation read-out; activation, %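 (tested at 5 µM)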; hit rate 0.48% among 140,000;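 active means above mean plus 3 SD of all compounds, about 5% in these data, not always enough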;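 further: 0% = vehicle buffer wells and 100% = reference agonist at full effect; tested in CHO reporter cells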
# Target sequence (O43603 whole entry, looked up): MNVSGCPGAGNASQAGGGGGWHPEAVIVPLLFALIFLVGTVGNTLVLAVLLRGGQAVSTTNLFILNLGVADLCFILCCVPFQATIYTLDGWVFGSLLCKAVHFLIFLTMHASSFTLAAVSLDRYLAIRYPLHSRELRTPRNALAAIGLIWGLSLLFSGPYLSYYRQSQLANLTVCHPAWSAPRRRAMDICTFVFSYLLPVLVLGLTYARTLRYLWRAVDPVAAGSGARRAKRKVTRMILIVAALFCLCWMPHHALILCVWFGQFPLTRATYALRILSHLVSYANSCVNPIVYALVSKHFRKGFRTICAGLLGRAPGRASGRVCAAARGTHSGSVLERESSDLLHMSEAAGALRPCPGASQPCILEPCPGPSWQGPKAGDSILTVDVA
# RGS16-Gao HTS: regulators of human RGS16-Galphao interaction. hit rate 0.38% among 220,000. binding response (% of control), % at 10 µM. bead-based flow cytometry RGS16-Galphao binding, fluorescence; actives lie on both sides;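 active means below 25% or above 175%, edge rows of some plates excepted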;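 further: Galphao activated by GDP with aluminum fluoride before binding; 100% = wells without compound and 0% = beads without RGS; some results beyond the cut were filed as inactive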
# Target sequence (O15492 whole entry, looked up): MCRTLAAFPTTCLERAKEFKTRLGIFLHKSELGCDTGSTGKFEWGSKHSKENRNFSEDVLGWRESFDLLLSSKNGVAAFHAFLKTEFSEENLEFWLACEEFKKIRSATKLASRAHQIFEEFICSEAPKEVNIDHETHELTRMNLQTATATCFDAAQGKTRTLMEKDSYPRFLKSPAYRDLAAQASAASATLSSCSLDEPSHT
# Target sequence (P09471 whole entry, looked up): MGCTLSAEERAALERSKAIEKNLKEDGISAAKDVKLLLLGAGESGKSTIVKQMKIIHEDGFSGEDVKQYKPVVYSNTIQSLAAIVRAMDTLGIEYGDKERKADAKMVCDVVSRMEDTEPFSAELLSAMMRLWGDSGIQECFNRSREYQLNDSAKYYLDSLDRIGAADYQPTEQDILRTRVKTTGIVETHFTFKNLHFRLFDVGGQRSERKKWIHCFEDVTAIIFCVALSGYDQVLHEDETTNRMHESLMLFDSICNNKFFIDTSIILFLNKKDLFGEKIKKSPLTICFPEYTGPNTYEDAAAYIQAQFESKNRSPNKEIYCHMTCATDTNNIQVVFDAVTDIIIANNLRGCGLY
# Insulin prom inh: TRM-6 insulin promoter activity inhibition; TRM-6 cells (human fetal islet line), insulin promoter-eGFP reporter, imaging; reporter expression induced with tamoxifen; inhibition, % at 2 µM; hit rate 0.9% among 130,000; AID 1273;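 active means inhibition above the mean plus 3 SD, with well images judged a real hit on visual review, cut at about 60% in these data, passing the limit was not always enough; inconclusive means inhibition over the cutoff but images rejected on review; inactive means inhibition not above the cutoff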
# PKD1 inh: PKD1 (human) kinase inhibition; Q15139; PKD1 kinase fluorescence polarization assay; inhibition, %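 (about 10 µM by stock and volumes)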; hit rate 0.056% among 200,000;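 active means inhibition of 50% or more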;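 further: controls were vehicle for no effect and a reference inhibitor for full effect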
# HSV augment: increases HSV replication in cells; HSV replication augmentation in cells, fold increase; maximum fold increase; hit rate 0.005% among 220,000;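 active means peak rise of 1.5-fold or more in the series; inconclusive means self-fluorescent or not available for retest; tested in PC3 cells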;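 further: first round at 10 µM; read as green reporter fluorescence; hits show the peak of a series up to 25 µM; 1 = signal of infected wells without compound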
# Insulin prom inh cell count: recorded beside Insulin prom inh, whose call it bears; normalized cell count, %; measured here: cell count, toxicity; reference of the scale not given here;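 cells exposed to compound for 48 h; stained nuclei by imaging scaled within each plate; lower means fewer cells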
# HSV augment primary fold: also measured in HSV augment; calls as there; fold increase; compound at 10 µM; measured here: primary screen fold increase 10 uM; tested in PC3 cells;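 GFP signal in the first replicate; 1 = infected wells without compound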
# * marks the source's active call; other numbers are inactive results; i = inactive; u = inconclusive; x = no result given. The order is random; overall some 1.3% were active at least once.
# The opening four compounds, to show the layout:
SMILES,GALR2 ag,RGS16-Gao HTS,Insulin prom inh,Insulin prom inh cell count,PKD1 inh,HSV augment,HSV augment primary fold
CCC(=O)Nc1cccc(NC(=O)c2ccc(C)cc2Cl)c1,x,106,x,x,-5,i,0.8
COc1ccc(CSc2nnc(C)s2)cc1F,x,97,23,107,5,i,1
CCOc1ccccc1C1C(C#N)=C(N)Nc2onc(-c3ccccc3)c21 (stereo not given),-0.8,100,x,x,-2,i,0.94
O=C(Nc1cccc(-c2ccc3nncn3n2)c1)c1ccco1,x,104,-33,124,-11,i,0.95

# The list itself, from the first entry:
SMILES,GALR2 ag,RGS16-Gao HTS,Insulin prom inh,Insulin prom inh cell count,PKD1 inh,HSV augment,HSV augment primary fold
CCC(=O)Nc1cccc(NC(=O)c2ccc(C)cc2Cl)c1,x,106,x,x,-5,i,0.8
COc1ccc(CSc2nnc(C)s2)cc1F,x,97,23,107,5,i,1
CCOc1ccccc1C1C(C#N)=C(N)Nc2onc(-c3ccccc3)c21 (stereo not given),-0.8,100,x,x,-2,i,0.94
O=C(Nc1cccc(-c2ccc3nncn3n2)c1)c1ccco1,x,104,-33,124,-11,i,0.95
Cc1ccccc1NC(=O)c1cccc(N2C(=O)C3C4CCC(C4)C3C2=O)c1 (stereo not given),-2.8,67,13,65,-6,i,0.8
Cc1ccc(OCCNC(=O)C2CCCCC2)cc1,x,98,x,x,4,i,0.93
O=S(=O)(c1ccccc1)N(CC1CO1)c1cccc2ccccc12 (stereo not given),x,110,x,x,-4,i,1
CN(C)C(=O)CSc1nc(-c2ccccc2)c(-c2ccccc2)o1,x,99,x,x,1,i,0.86
CCN(CC)S(=O)(=O)c1ccc(C)c(NC(=O)/C=C/c2cccs2)c1,-0.7,108,24,112,-15,i,0.77
CCc1nn(C(C)C(=O)Nc2cccc(C)c2C)c(=O)c2cc3occc3n12 (stereo not given),-0.9,101,-27,93,-4,i,0.94
COc1ccc(CCNC(=O)c2nnc(Cc3ccc(Cl)cc3)o2)cc1OC,-2.0,100,x,x,11,i,0.95
O=C(NCCCN1CCc2ccccc2C1)C1CCN(c2nnc(-n3cccc3)s2)CC1,-0.2,100,-71,69,7,i,1.1
O=C1c2ccccc2S(=O)(=O)N1CC(O)COc1ccc(Cl)cc1 (stereo not given),-0.6,97,-15,72,-7,i,0.9
COc1ccc(CCNS(=O)(=O)c2ccc(Cl)s2)cc1OC,1.0,102,-29,116,-5,x,x
COc1cccc(N(CC(=O)Nc2cccc(N(C)S(C)(=O)=O)c2)S(C)(=O)=O)c1,-1.3,104,20,99,-2,i,0.99
O=C(CN1CCN(CCN2C(=O)c3cccc4cccc(c34)C2=O)CC1)c1ccc(F)cc1,-2.5,91,-28,96,11,i,0.95
CC(Sc1ccc2c(c1)OCCO2)C(=O)Nc1ncc(Cl)cc1Cl (stereo not given),-0.9,99,-42,132,-6,i,0.88
c1ccc(C2CC3CC(c4ccccc4)N2O3)cc1 (stereo not given),-2.7,105,-31,97,-4,i,0.87
CC(C)(C)c1ccc(OCCCC(=O)NC2=NCCS2)cc1,-1.4,104,-13,47,-9,i,1
COc1ccc(OC)c(NC(=O)CCN2CCCCC2)c1,-1.1,105,38,126,-7,i,1.1
COc1cccc(NC(=O)COC(=O)c2ccc(S(=O)(=O)NCc3ccco3)cc2)c1,-0.9,109,14,187,-5,i,0.82
Cc1nn(C(C)C(=O)NCc2ccco2)c(C)c1[N+](=O)[O-] (stereo not given),x,96,x,x,3,i,1
CO/N=C/c1cccn1-c1nccc(N(C)C)c1C#N,x,100,x,x,-1,i,0.99
CCOC(=O)c1cc2sccc2n1Cc1ccc(C#N)cc1,-4.3,103,x,x,-9,i,1.2
COC(=O)c1ccccc1NC(=O)CCS(=O)(=O)c1ccc(Br)cc1,x,100,-139,71,0,i,1.1
CCNC(=O)COc1ncnc2scc(-c3ccc(F)cc3)c12,x,94,-6,96,-7,i,0.99
COc1ccc(CCN2C(=O)NC(NS(=O)(=O)c3ccc(NC(C)=O)cc3)(C(F)(F)F)C2=O)cc1OC (stereo not given),x,107,x,x,-3,i,0.99
Nc1cc(-c2ccc(Cl)cc2)nn1-c1ccccc1,x,100,x,x,0,i,1.1
Cc1cc(C)n(-c2nc3c(c(=O)[nH]c(=O)n3C)n2C)n1,0.0,88,-6,121,-4,i,0.88
CCOC(=O)C1C(=O)CC(C)(O)C(C(=O)OCC)C1c1cccc(OC)c1 (stereo not given),-0.8,100,x,x,-11,i,0.97
Cc1cc(C)c(C)c(S(=O)(=O)Nc2ccccc2C(=O)NCCCN2CCOCC2)c1C,x,101,-44,71,-1,i,0.95
COc1ccccc1-n1cnnc1SCC(=O)Nc1ncc(Cl)cc1Cl,-1.4,101,x,x,-1,i,1
CCOc1cc(CNc2ccccc2)cc(Br)c1OCc1ccccc1F,-3.5,102,-11,124,2,i,0.83
Cc1c2c(nc3c(C(=O)NC4CCCCC4C)cnn13)CCCC2 (stereo not given),-1.3,102,x,x,1,x,x
CCC1CCCCN1C(=O)CSc1nnc(-c2ccc(Cl)cc2)o1 (stereo not given),-0.6,81,x,x,3,i,1
CCC(C)NC(=O)c1cc(-c2ccc(OC)cc2)on1 (stereo not given),-0.3,101,0,148,-5,i,0.93
COc1cc(NC(=O)CSc2nc3ccccc3c(=O)n2C)ccc1NC(=O)c1ccco1,-0.2,102,-14,113,-5,i,0.83
COc1ccccc1NS(=O)(=O)c1cccc(C(=O)NN)c1,-3.8,102,50,139,-11,i,1.1
Cc1ccc(CNC(=O)Cn2cccc2C(=O)c2ccccc2)cc1,0.5,x,-5,79,-2,i,1.1
Cn1cc(-c2nnc(-c3ccccc3)o2)c2ccccc21,-0.9,100,-22,72,-12,i,0.93

# Taken from the entries so far (7 entries):
SMILES,GALR2 ag,RGS16-Gao HTS,Insulin prom inh,Insulin prom inh cell count,PKD1 inh,HSV augment,HSV augment primary fold
CCC(=O)Nc1cccc(NC(=O)c2ccc(C)cc2Cl)c1,x,106,x,x,-5,i,0.8
COc1ccc(CSc2nnc(C)s2)cc1F,x,97,23,107,5,i,1
CCOc1ccccc1C1C(C#N)=C(N)Nc2onc(-c3ccccc3)c21 (stereo not given),-0.8,100,x,x,-2,i,0.94
O=C(Nc1cccc(-c2ccc3nncn3n2)c1)c1ccco1,x,104,-33,124,-11,i,0.95
Cc1ccccc1NC(=O)c1cccc(N2C(=O)C3C4CCC(C4)C3C2=O)c1 (stereo not given),-2.8,67,13,65,-6,i,0.8
Cc1ccc(OCCNC(=O)C2CCCCC2)cc1,x,98,x,x,4,i,0.93
O=S(=O)(c1ccccc1)N(CC1CO1)c1cccc2ccccc12 (stereo not given),x,110,x,x,-4,i,1

# Three entries out of the list above, ordered by their value in GALR2 ag, falling.
mol,GALR2 ag
Cc1cc(C)n(-c2nc3c(c(=O)[nH]c(=O)n3C)n2C)n1,0.0
CCC1CCCCN1C(=O)CSc1nnc(-c2ccc(Cl)cc2)o1 (stereo not given),-0.6
COc1ccccc1-n1cnnc1SCC(=O)Nc1ncc(Cl)cc1Cl,-1.4

# Next section.
SMILES,GALR2 ag,RGS16-Gao HTS,Insulin prom inh,Insulin prom inh cell count,PKD1 inh,HSV augment,HSV augment primary fold
CCOC(=O)c1sc(NC(=O)/C=C/c2c(F)cccc2Cl)nc1C,-0.7,86,-88,124,-6,i,0.97
CCOC(=O)C1=C(NC(=S)NC(=O)c2ccccc2)c2ccccc2CC1C(C)C (stereo not given),-1.9,103,17,78,-2,i,0.76
COc1ccc(-c2cc(C(=O)Nc3sc4c(c3C#N)CCCC4)c3ccccc3n2)cc1OC,-1.3,97,-25,73,-3,i,0.92
COc1cc2cc(CN(Cc3nnnn3Cc3ccco3)C3CCCCC3)c(=O)[nH]c2cc1OC,0.2,94,47,117,0,u,x
Clc1ccc2c(c1)C(N1CCNCC1)=Nc1ccccc1O2,-0.6,99,-55,129,-9,i,0.83
O=C(COC(=O)c1ccc(S(=O)(=O)N2CCCC2)cc1)NCc1ccc(Cl)cc1,-0.5,100,23,146,7,i,0.95
Cc1nn(CC(=O)NCc2ccccc2F)c(C)c1[N+](=O)[O-],x,104,x,x,3,i,0.85
Cc1cc(C(=O)CSc2nnc3ccccn23)c(C)n1-c1ccccc1,-1.2,106,7,96,3,i,1.2
Cc1occc1C(=O)NC(C)c1ccc2c(c1)OCO2 (stereo not given),-1.0,103,-9,103,-2,i,0.88
Cc1c(NC(=O)c2ccc(Br)o2)cccc1C(=O)O,-2.1,98,19,66,2,i,1.2
CCOC(=O)NC(=O)/C(C#N)=N/Nc1ccc(F)cc1,-0.8,96,43,72,-4,i,0.76
Cc1cc(NC(=O)NCC(F)(F)F)no1,x,93,x,x,x,i,0.91
CC1CCN(C(=S)c2ccc(-c3ccc(Cl)cc3Cl)o2)CC1,-0.6,86,-12,146,-5,i,1
O=C(COCC(=O)Nc1cccc(C(F)(F)F)c1)Nc1cccc(C(F)(F)F)c1,-2.2,97,x,x,-1,i,0.73
Cc1cc(C(F)(F)F)n(-c2nc(C(=O)Nc3ccccc3Oc3ccccc3)cs2)n1,-0.8,107,36,114,1,i,0.95
Cn1c2c(c(=O)n(C)c1=O)C(NC(=O)c1cccs1)(C(F)(F)F)C(=O)N2 (stereo not given),-3.5,109,21,109,-12,i,1
O=C(NC(N1CCOCC1)C(Cl)(Cl)Cl)c1ccco1 (stereo not given),x,104,38,132,4,i,0.94
CCOC(=O)Cc1nnc(NC(=O)C(CC)Sc2nc(C)cc(=O)[nH]2)s1 (stereo not given),-1.4,98,x,x,-15,i,0.99
Cc1[nH]c2ccccc2c1-c1csc(NC(=O)CSCCO)n1,x,108,-42,56,-3,i,1
COc1cc(C(=O)OCC(=O)Nc2ccc(F)cc2F)cc(OC)c1OC,2.1,179,x,x,-2,i,1
CCN(CC)C(=O)C[n+]1cccc(/C=N/O)c1,-0.5,112,-25,102,3,i,1
COCCNC(=O)c1cc(S(=O)(=O)N(C)c2ccccc2OC)ccc1C,x,104,x,x,x,i,1
Cc1[nH]c2ccc(-c3nnc(SCC(=O)c4ccc(F)cc4)o3)cc2c1C,-2.6,107,50,97,-6,i,0.62
CN(CCOc1ccccc1)CC(=O)Nc1ccc(S(=O)(=O)N2CCCC2)cc1,x,102,x,x,x,i,0.95
CC(=O)N1CCN(c2cc(N3CCCC3)c(F)cc2[N+](=O)[O-])CC1,x,135,x,x,-1,i,0.88
CCC(C)N1C(=O)CCC1C(=O)N1CCN(c2ccc(F)cc2)CC1 (stereo not given),-1.3,104,-47,85,-2,x,x
CC1=C(C(=O)N(C)C)C(c2ccc(Cl)c(Cl)c2)NC(=O)N1 (stereo not given),-0.7,98,22,130,1,i,1.1
CCOc1ccc(C2=C/C(=C/c3cccnc3)C(=O)O2)cc1,-2.1,91,-50,112,6,i,0.92
COc1cccc(NC(=O)C(Cc2ccccc2)NC(=O)C2CCC(C)CC2)c1 (stereo not given),-1.8,97,36,82,-11,i,0.99
CN(C)C(=O)COC(=O)c1cc(Cl)cc(Cl)c1N,-0.6,99,-40,51,6,i,0.93
O=[N+]([O-])c1cc(Cl)ccc1Sc1cccc2cccnc12,-0.1,100,-8,112,-2,i,0.94
CC(=O)c1cc(C#N)c(SCCC(C)C)nc1C,-0.8,111,31,148,-13,i,0.99
COCCNC(=S)NC(=O)CC12CC3CC(CC(C3)C1)C2,0.0,123,-89,116,-9,i,0.91
O=C(CSc1nc2c(c(=O)n1-c1ccc(Cl)cc1)SCC2)NCc1ccco1,-2.5,104,x,x,0,x,x
COc1ccc(NC(=O)CSc2ccc(-c3ccccn3)nn2)cc1OC,-1.8,98,13,118,2,i,0.94
Clc1ccc(-c2nnc(SCc3ccon3)o2)c(Cl)c1,-2.5,117,-89,81,-1,x,x
COc1nc(NCc2cccnc2)nc(NC2CCCCC2)n1,-0.5,126,-8,68,4,i,0.76
CCOc1ccc2ccccc2c1CNc1nnnn1C,x,98,18,69,-8,i,1.1
O=C(N/N=C/c1ccccn1)c1ccc(S(=O)(=O)N2CCCCCC2)cc1,x,97,x,x,7,i,0.99
COc1cc(SC#N)ccc1N=Cc1c(C)[nH]n(-c2ccc(C)c(C)c2)c1=O,12*,91,x,x,-7,i,0.59
